Source: PubChem BioAssay
Mtb betalactam: beta-lactam sensitization of Mtb H37Rv; 330,000 compounds, 0.27% hits; M. tuberculosis H37Rv growth with meropenem, percent inhibition; hits of this screen are not shown here; AID 434955; inhibition, % at 25 µM;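 active means about 74% or more and at least 40 points above the plate without the antibiotic, then above 30% in a dose series; inconclusive means first-round hits that could not be retested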;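 further: growth measured after seven days incubation then overnight dye step; 0% = bacteria only wells and 100% = bacteria with antibiotic; twin plates without the antibiotic show which effects depend on it; some results filed as inactive read as strong as hits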
RecA intein inh: blocks M. tuberculosis RecA intein splicing; inhibition, %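 (about 9 µM by stock and volumes)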; 290,000 compounds, 0.75% hits; P9WHJ3; cell-free RecA intein splicing, fluorescence; in the data active means inhibition above about 30%; inconclusive means no clear call, values can overlap the other calls;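 further: 0% = vehicle wells and 100% = reference inhibitor control wells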
Target sequence (P9WHJ3 whole entry, looked up): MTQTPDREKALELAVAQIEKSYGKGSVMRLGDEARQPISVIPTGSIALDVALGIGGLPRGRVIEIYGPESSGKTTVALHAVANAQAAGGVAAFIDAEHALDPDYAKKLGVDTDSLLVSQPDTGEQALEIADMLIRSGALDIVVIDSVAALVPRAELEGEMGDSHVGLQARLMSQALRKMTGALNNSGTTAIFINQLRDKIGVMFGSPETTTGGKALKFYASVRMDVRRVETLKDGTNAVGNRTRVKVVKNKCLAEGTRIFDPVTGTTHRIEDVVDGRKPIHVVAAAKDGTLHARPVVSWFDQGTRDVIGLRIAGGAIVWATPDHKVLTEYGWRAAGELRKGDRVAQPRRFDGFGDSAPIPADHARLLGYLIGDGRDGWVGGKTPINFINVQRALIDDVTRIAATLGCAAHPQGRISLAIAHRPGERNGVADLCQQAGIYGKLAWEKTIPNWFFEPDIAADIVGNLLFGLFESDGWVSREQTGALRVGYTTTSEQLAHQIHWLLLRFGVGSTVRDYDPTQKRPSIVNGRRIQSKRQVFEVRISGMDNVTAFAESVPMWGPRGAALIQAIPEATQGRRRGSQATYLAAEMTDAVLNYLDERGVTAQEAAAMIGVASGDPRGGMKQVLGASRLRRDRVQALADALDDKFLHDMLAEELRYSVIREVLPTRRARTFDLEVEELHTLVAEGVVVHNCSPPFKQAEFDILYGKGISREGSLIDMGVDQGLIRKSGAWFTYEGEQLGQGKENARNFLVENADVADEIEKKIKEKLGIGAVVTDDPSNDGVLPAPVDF
Arbovirus inh: antivirals against arbovirus infection. inhibition, % at 10 µM. AID 1251. 200,000 compounds, 0.37% hits. arbovirus infection cell-based antiviral screen;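 active means inhibition from about 30%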;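 further: bluetongue infection of BSR cells; cell survival read as ATP light after 72 h; 0% = infected wells without compound and 100% = uninfected wells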
Mtb growth: M. tuberculosis H37Rv growth inhibitors, H37Rv strain (AID 1626) | M. tuberculosis H37Rv growth inhibition; higher % means a stronger effect | one-dose inhibition, % at 10 µM; IC50 in µM for titrated hits | 220,000 compounds, 0.95% hits;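 active means confirmed in a dose series; inconclusive means inhibition above 80% but not taken into the dose series; inactive means below 80% or under 30% at every dose of the series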;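 further: bacteria incubated seven days before Alamar blue readout; 0% = bacteria only wells and 100% = bacteria with antibiotic wells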
YopH PTP inh: inhibitors of Yersinia enterocolitica YopH tyrosine phosphatase | fluorescence Ex485/Em525 | 140,000 compounds, 0.16% hits | inhibition, %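 (about 10 µM by stock and volumes)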;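 active means inhibition of 50% or more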;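 further: controls were vehicle for no effect and minimum signal wells for full effect; inactives centre near -20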
Arbovirus inh repeat: recorded beside Arbovirus inh, whose call it bears; inhibition, %; measured here: 10K subset replicate screen; many hits read low in the repeat;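 first of two repeat runs on a subset; 0% = infected and 100% = uninfected wells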
Starred values were filed as active, the others as inactive.

Start of the listing, in advance, 8 compounds:
For CC1CN(C(=O)c2cc(S(=O)(=O)N3CCN(c4ccccc4)CC3)ccc2Cl)CC(C)O1 (configuration not stated) the results were Mtb betalactam -5 and RecA intein inh 0.6.
Screening O=c1[nH]cc(COCC(F)CCl)c(=O)[nH]1 (configuration not stated) returned Mtb betalactam -8, RecA intein inh -0.4 and Mtb growth -1%.
`O=C1COc2ccc(S(=O)(=O)NCCc3ccc(Cl)cc3)cc2N1` gave Mtb betalactam 4 and RecA intein inh -1.7.
CCC(C)CCN1C(Nc2ccccc2)=NC[C@@H]1CC(C)C (some centres not stated) was read as Mtb betalactam -3 and RecA intein inh 1.2.
Screening Cn1c2c(c(=O)n(C)c1=O)NC1(N2)C(=O)Nc2ccccc21 (configuration not stated) returned Mtb betalactam 4, RecA intein inh -24 and Mtb growth -18%.
`COc1ccc2c(C)c(CCC(=O)NC3CC3)c(=O)oc2c1` gave Mtb betalactam 3 and RecA intein inh 3.6.
For CCOC(=O)c1c(S(=O)(=O)N2CCN(c3ccc(F)cc3)CC2)c(C)n(C)c1C the results were Mtb betalactam 1 and RecA intein inh -0.6.
For COc1cc(NC(=O)C2=C(N3CCOCC3)/C(=C\c3ccc(Cl)cc3Cl)CC2)cc(OC)c1OC the results were Mtb betalactam -1, RecA intein inh 3.5, Arbovirus inh 3, Mtb growth 4% and YopH PTP inh -22.

All compounds of this part, previewed entries included:
For CC1CN(C(=O)c2cc(S(=O)(=O)N3CCN(c4ccccc4)CC3)ccc2Cl)CC(C)O1 (configuration not stated) the results were Mtb betalactam -5 and RecA intein inh 0.6.
Screening O=c1[nH]cc(COCC(F)CCl)c(=O)[nH]1 (configuration not stated) returned Mtb betalactam -8, RecA intein inh -0.4 and Mtb growth -1%.
`O=C1COc2ccc(S(=O)(=O)NCCc3ccc(Cl)cc3)cc2N1` gave Mtb betalactam 4 and RecA intein inh -1.7.
CCC(C)CCN1C(Nc2ccccc2)=NC[C@@H]1CC(C)C (some centres not stated) was read as Mtb betalactam -3 and RecA intein inh 1.2.
Screening Cn1c2c(c(=O)n(C)c1=O)NC1(N2)C(=O)Nc2ccccc21 (configuration not stated) returned Mtb betalactam 4, RecA intein inh -24 and Mtb growth -18%.
`COc1ccc2c(C)c(CCC(=O)NC3CC3)c(=O)oc2c1` gave Mtb betalactam 3 and RecA intein inh 3.6.
For CCOC(=O)c1c(S(=O)(=O)N2CCN(c3ccc(F)cc3)CC2)c(C)n(C)c1C the results were Mtb betalactam 1 and RecA intein inh -0.6.
For COc1cc(NC(=O)C2=C(N3CCOCC3)/C(=C\c3ccc(Cl)cc3Cl)CC2)cc(OC)c1OC the results were Mtb betalactam -1, RecA intein inh 3.5, Arbovirus inh 3, Mtb growth 4% and YopH PTP inh -22.
`CC(=O)NCc1cc(-c2ccc(Cl)cc2)no1` gave Mtb betalactam 9, RecA intein inh -0.5, Arbovirus inh 4 and Mtb growth -5%.
`Cc1c(Cl)cccc1N1C(=O)CC(NNC(=O)c2cccs2)C1=O` (configuration not stated) gave Mtb betalactam -10, RecA intein inh 2.1, Arbovirus inh 7 and Mtb growth 3%.
`Cc1ccc(S(=O)(=O)NC(C)C(=O)Nc2ccc3c(c2)OCO3)cc1` (configuration not stated) gave Mtb betalactam -5 and RecA intein inh 1.4.
For COc1cccc(-n2c(O)c(C=NCCN3CCOCC3)c(=O)[nH]c2=O)c1 the results were Mtb betalactam -4, RecA intein inh -2.6, Arbovirus inh 8, Mtb growth -7% and YopH PTP inh -32.
`Cc1ccc(N=C2C(=O)Nc3c(C)cccc32)cc1` gave Mtb betalactam 5 and RecA intein inh 1.6.
`COc1cccc(N2C(=O)CC(=O)NC2=O)c1` gave Mtb betalactam -5, RecA intein inh 0.2, Arbovirus inh -1, Mtb growth -12%, YopH PTP inh -25 and Arbovirus inh repeat -1.
`C=CCN(C(=O)c1csnn1)C(C(=O)NC1CCCC1)c1cccs1` (configuration not stated) gave Mtb betalactam -9 and RecA intein inh -0.7.
COc1ccc(/C=C/C(=O)N2CCNC(=O)C2)c(OC)c1 was read as Mtb betalactam 1, RecA intein inh 0.7, Arbovirus inh 5 and Mtb growth 1%.
For O=C(CC1C(=O)NCCN1C(=O)Nc1ccc(F)cc1F)Nc1ccc(F)cc1 (configuration not stated) the results were Mtb betalactam -6, RecA intein inh 0.8 and Mtb growth -9%.
Cc1ccc(S(=O)(=O)Nc2cc(C)c(O)c(S(=O)(=O)c3ccc(C)cc3)c2)cc1 was read as Mtb betalactam 7, RecA intein inh 0.7, Arbovirus inh 1, Mtb growth -13% and YopH PTP inh -58.
`CCOc1ccc(CCNC(=O)CCc2nnc3ccc(N4CCOCC4)nn23)cc1OCC` gave Mtb betalactam -2 and RecA intein inh 0.1.
`Cn1nc([N+](=O)[O-])nc1Oc1ccccc1C(=O)N1CCOCC1` gave Mtb betalactam -7, RecA intein inh -1.1, Arbovirus inh 3 and Mtb growth 6%.
Screening COc1ccccc1-n1c(O)c(C=NCCCn2ccnc2)c(=O)[nH]c1=O returned Mtb betalactam -9, RecA intein inh -0.1, Arbovirus inh -3, Mtb growth -2% and YopH PTP inh -48.
CCN(CC)CCOC(=O)c1ccc(N/C=C(/C#N)c2nc(-c3ccc(OC)cc3)cs2)cc1 was read as Mtb betalactam 100, RecA intein inh -1.9 and Mtb growth inconclusive.
`O=C(NC1CCOc2ccccc21)c1ccc(=O)[nH]c1` (configuration not stated) gave Mtb betalactam 3 and RecA intein inh -2.0.
COC(=O)c1cc(OC(=O)c2ccc(=O)[nH]c2)cc(C(=O)OC)c1 was read as Mtb betalactam 4 and RecA intein inh -0.2.
For CC(=O)C1=C(C)N(Cc2ccccc2)C(=O)N[C@H]1c1cccs1 the results were Mtb betalactam -11, RecA intein inh -2.2, Arbovirus inh 8, Mtb growth -9% and YopH PTP inh -27.
Screening N/C(=N\OC(=O)c1ccccc1Cl)c1ccccc1 returned Mtb betalactam -15, RecA intein inh 4.1, Arbovirus inh 0, Mtb growth 0% and YopH PTP inh -42.
Screening Fc1cccc(/C=N/n2c(C3CCCCC3)n[nH]c2=S)c1 returned Mtb betalactam 0 and RecA intein inh 0.4.
Screening Cn1cnc([N+](=O)[O-])c1Sc1ccc(C(C)(C)C)cc1 returned Mtb betalactam 43, RecA intein inh 31* and Mtb growth 7%.
`O=C(NCc1ccc2c(c1)OCO2)c1ccc2c(=O)n(C3CCCC3)c(=O)[nH]c2c1` gave Mtb betalactam -1, RecA intein inh -2.7, Arbovirus inh -16, Mtb growth -5% and YopH PTP inh -16.
For COCCNC(=O)CN1CCN(C(c2ccccc2)c2ccccc2)CC1 the results were Mtb betalactam 1, RecA intein inh -1.7, Arbovirus inh 8, Mtb growth -6% and YopH PTP inh 4.
For COCC(C)NC(=O)CSc1ncnc2sc(-c3ccccc3)cc12 (configuration not stated) the results were Mtb betalactam 2 and RecA intein inh 2.1.
`COc1cccc(NC(=O)c2cc(-c3ccncc3)nc3c(C)cc(C)cc23)c1` gave Mtb betalactam 55, RecA intein inh -0.1, Arbovirus inh 10 and Mtb growth 11µM*.
Screening CCOc1ccc(CNc2ccc(N3CCN(Cc4ccccc4)CC3)cc2)cc1 returned Mtb betalactam 2 and RecA intein inh -0.5.
Screening CN(C(=S)NC(=O)c1ccccc1Br)C1CCCCC1 returned Mtb betalactam 81, RecA intein inh 1.5, Arbovirus inh 1, Mtb growth 2% and YopH PTP inh -45.
Screening COCCNC(=O)CN(Cc1ccco1)C(=O)CCC(=O)Nc1nccs1 returned Mtb betalactam -5 and RecA intein inh -1.7.
`COc1ccc(-c2nnn(CC(=O)N(Cc3ccco3)C(C(=O)NCC3CCCO3)c3ccco3)n2)cc1` (configuration not stated) gave Mtb betalactam 1, RecA intein inh -5.8, Arbovirus inh 13 and YopH PTP inh -17.
`CCc1c(C(=O)NC(C)C2CCCO2)csc1C` (configuration not stated) gave Mtb betalactam -8 and RecA intein inh -1.8.
Screening COc1ccc(CNC(=O)CN(Cc2ccccc2)C(=O)c2csnn2)cc1 returned Mtb betalactam -6, RecA intein inh 2.0, Arbovirus inh 9, Mtb growth 2% and YopH PTP inh -4.
Screening CCCc1cn(S(=O)(=O)c2ccc(OC)cc2OC)nc1N returned Mtb betalactam -1, RecA intein inh -2.8, Arbovirus inh -2, Mtb growth -6% and YopH PTP inh -21.
`COc1cc2c(cc1OC)CC(=O)N(C)CC2` gave Mtb betalactam -1, RecA intein inh -1.5, Arbovirus inh -2, Mtb growth -3% and YopH PTP inh -17.
For O=C(CN1C(=O)NC2NC(=O)NC21)N/N=C/c1ccc(F)cc1 (configuration not stated) the results were Mtb betalactam 1, RecA intein inh -0.9, Arbovirus inh -4 and Mtb growth -5%.
COc1ccccc1CC(=O)Nc1ccc2nc(C)sc2c1 was read as Mtb betalactam 7, RecA intein inh -1.6, Arbovirus inh 8, Mtb growth 11% and YopH PTP inh 13.
CCCC(=O)N(CCN1CCOCC1)c1nc2c(C)ccc(C)c2s1 was read as Mtb betalactam 2 and RecA intein inh 5.2.
For CCOC(=O)N1CCN(c2c(NCCCOC(C)C)c(=O)c2=O)CC1 the results were Mtb betalactam 4, RecA intein inh -0.7, Arbovirus inh -3, Mtb growth 0% and YopH PTP inh -9.
Cc1cccc(Oc2cnn(C(C)(C)C)c(=O)c2Cl)c1 was read as Mtb betalactam 7, RecA intein inh -1.7, Arbovirus inh 8, Mtb growth -2% and YopH PTP inh 5.
COc1cccc(OC)c1OCCNCCO was read as Mtb betalactam -12, RecA intein inh -1.3, Arbovirus inh 10, Mtb growth 3% and YopH PTP inh -21.
CCCN1CCC(NC(=S)Nc2ccc(S(N)(=O)=O)cc2)CC1 was read as Mtb betalactam -2, RecA intein inh -0.3, Arbovirus inh 4 and Mtb growth 0%.
`Cc1ccc(Cc2cnc(NC(=O)/C(C#N)=C/c3ccc(-c4ccccc4[N+](=O)[O-])o3)s2)cc1` gave Mtb betalactam 74, RecA intein inh 0.4, Arbovirus inh -15 and YopH PTP inh -34.
Cc1ccc(C)c(NC(=O)C2CC(O)CN2C(=O)OCc2ccccc2)c1 (configuration not stated) was read as Mtb betalactam 11, RecA intein inh 2.4, Arbovirus inh 3, Mtb growth -1% and YopH PTP inh -14.
Screening Cc1ccc(S(=O)(=O)N2CCN(c3ncnc4sccc34)CC2)cc1 returned Mtb betalactam -2 and RecA intein inh 1.2.
`COc1ccc(N2C(=O)C3[C@@H](C2=O)C2(Cl)C(Cl)=C(Cl)C3(Cl)C2(OC)OC)cc1` (some centres not stated) gave Mtb betalactam -7, RecA intein inh 3.1, Arbovirus inh 2, Mtb growth -5% and YopH PTP inh -18.
OC1(Cc2ccccc2)CCNCC1 was read as Mtb betalactam 2, RecA intein inh -5.0 and Mtb growth -4%.
For COc1ccc(/C=N\NC(=O)CNC(=O)C2COc3ccccc3O2)cc1[N+](=O)[O-] (configuration not stated) the results were Mtb betalactam 2 and RecA intein inh -4.1.
`COc1ccc(S(=O)(=O)N2CCOC2CNC(=O)C(=O)NCCc2ccc(S(N)(=O)=O)cc2)cc1` (configuration not stated) gave Mtb betalactam 2 and RecA intein inh -8.7.
Cc1cccc(N(CC(=O)NC2CCCCC2)C(=O)CCC(=O)Nc2nccs2)c1 was read as Mtb betalactam -6 and RecA intein inh 0.0.
Screening CC1(c2ccc3noc(-c4cccc(F)c4)c3c2)OCCO1 returned Mtb betalactam -12, Arbovirus inh -5 and Mtb growth 4%.
Screening Cc1ccc(C)c(-c2cc(C(=O)NN3CCOCC3)c3ccccc3n2)c1 returned Mtb betalactam -9, RecA intein inh -2.7, Arbovirus inh 4 and Mtb growth 3%.
For CC1CCN(C(=O)Cn2cc(S(=O)(=O)CC(=O)N3CCOCC3)c3ccccc32)CC1 the results were Mtb betalactam 1 and RecA intein inh 0.0.
Screening COC(=O)c1ccc2c(c1)C(=O)/C(=C/c1ccc(C)cc1)O2 returned Mtb betalactam 1, RecA intein inh -0.5, Arbovirus inh -6, Mtb growth -6% and YopH PTP inh -27.
COc1cc([N+](=O)[O-])cc(/C=N/NC(=O)c2ccc(C)nc2)c1O was read as Mtb betalactam -4, RecA intein inh 5.9, Arbovirus inh 15, Mtb growth 3% and YopH PTP inh -22.
`COc1cc(OC)nc(Oc2ccccc2C(=O)Oc2cccc(C)c2)n1` gave Mtb betalactam 9, RecA intein inh 10, Arbovirus inh 15, Mtb growth 0% and YopH PTP inh 22.
For O=S(=O)(Nc1ccncc1Cl)c1cccc(Cl)c1Cl the results were Mtb betalactam -6, RecA intein inh -5.3 and Mtb growth -10%.
`CC(O)[C@H]1CNC(=O)C(=O)N1CCc1cc(C(F)(F)F)cc(C(F)(F)F)c1` (some centres not stated) gave Mtb betalactam 0, RecA intein inh 2.0 and Mtb growth -14%.

These rows are one share of the data, so the mix of outcomes need not match the whole.
